Measles inh: inhibitors of measles virus growth in cells, primary screen, measles RdRp inhibitor project, cell-based, single point, HTS; AID 745, 2007; 33,000 tested, 0.1% active; infected Vero cells, GFP fluorescence, 64 h; active compounds read low; z-score (no concentration beside the values);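 active = z-score under -3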;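 note: score is relative to mean and SD of the compound wells of a plate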
Active calls of the source: *. The list is partial; rates above refer to the full screens.

SMILES	Measles inh
CCCOc1cccc(C(=O)Nc2cccc(-c3nc4ccc(C)cc4o3)c2)c1	-0.96
COc1ccc(CC(=O)NCC2COc3ccccc3O2)cc1OC (stereo not drawn)	0.75
CCCCS(=O)C1CCCCC1OC(=O)c1ccccc1 (stereo not drawn)	0.01
CCC(C)C(=O)N1c2ccccc2C(N(C(=O)COc2ccccc2)c2ccccc2)CC1C (stereo not drawn)	-0.07
Cn1c(=O)c2cc(C(=O)Nc3cccc(C(F)(F)F)c3)sc2c2ccc(Cl)cc21	-1.7
Nc1c(Cl)c(Cl)nc(Cl)c1Cl	-1.2
CCN(CC)c1nc(C)nc2sc(C(=O)Nc3cc(OC)c(OC)c(OC)c3)c(C)c12	0.2
COc1cc(C(=O)N2C(=S)N(c3ccccc3)C3(C)CC2c2ccccc2O3)cc(OC)c1OC (stereo not drawn)	-0.06

Sorted by molar mass (low to high): three of the compounds above
SMILES	Measles inh
Nc1c(Cl)c(Cl)nc(Cl)c1Cl	-1.2
CCCOc1cccc(C(=O)Nc2cccc(-c3nc4ccc(C)cc4o3)c2)c1	-0.96
CCN(CC)c1nc(C)nc2sc(C(=O)Nc3cc(OC)c(OC)c(OC)c3)c(C)c12	0.2

Looked up above.
Nc1c(Cl)c(Cl)nc(Cl)c1Cl | Measles inh: -1.2
CCC(C)C(=O)N1c2ccccc2C(N(C(=O)COc2ccccc2)c2ccccc2)CC1C (stereo not drawn) | Measles inh: -0.07
Cn1c(=O)c2cc(C(=O)Nc3cccc(C(F)(F)F)c3)sc2c2ccc(Cl)cc21 | Measles inh: -1.7
CCN(CC)c1nc(C)nc2sc(C(=O)Nc3cc(OC)c(OC)c(OC)c3)c(C)c12 | Measles inh: 0.2

Bioassay records (PubChem BioAssay)
